GCN5L2 inh – GCN5L2 (KAT2A) acetyltransferase inhibition; Q92830; GCN5L2 HAT assay, ThioGlo1 CoA-SH fluorescence; Potency, µM (highest dose often 58.9 µM), without a hit: at the top dose activity change, negative = inhibition, hits mostly inhibitors; 0.21% of 390,000 active; active means well fitted inhibition curve with a large enough effect; inconclusive means small, poorly fitted or top-dose-only effect, or another doubt; inactive means no such curve, though single readings can be large or run the other way
Target sequence (Q92830 whole entry, looked up): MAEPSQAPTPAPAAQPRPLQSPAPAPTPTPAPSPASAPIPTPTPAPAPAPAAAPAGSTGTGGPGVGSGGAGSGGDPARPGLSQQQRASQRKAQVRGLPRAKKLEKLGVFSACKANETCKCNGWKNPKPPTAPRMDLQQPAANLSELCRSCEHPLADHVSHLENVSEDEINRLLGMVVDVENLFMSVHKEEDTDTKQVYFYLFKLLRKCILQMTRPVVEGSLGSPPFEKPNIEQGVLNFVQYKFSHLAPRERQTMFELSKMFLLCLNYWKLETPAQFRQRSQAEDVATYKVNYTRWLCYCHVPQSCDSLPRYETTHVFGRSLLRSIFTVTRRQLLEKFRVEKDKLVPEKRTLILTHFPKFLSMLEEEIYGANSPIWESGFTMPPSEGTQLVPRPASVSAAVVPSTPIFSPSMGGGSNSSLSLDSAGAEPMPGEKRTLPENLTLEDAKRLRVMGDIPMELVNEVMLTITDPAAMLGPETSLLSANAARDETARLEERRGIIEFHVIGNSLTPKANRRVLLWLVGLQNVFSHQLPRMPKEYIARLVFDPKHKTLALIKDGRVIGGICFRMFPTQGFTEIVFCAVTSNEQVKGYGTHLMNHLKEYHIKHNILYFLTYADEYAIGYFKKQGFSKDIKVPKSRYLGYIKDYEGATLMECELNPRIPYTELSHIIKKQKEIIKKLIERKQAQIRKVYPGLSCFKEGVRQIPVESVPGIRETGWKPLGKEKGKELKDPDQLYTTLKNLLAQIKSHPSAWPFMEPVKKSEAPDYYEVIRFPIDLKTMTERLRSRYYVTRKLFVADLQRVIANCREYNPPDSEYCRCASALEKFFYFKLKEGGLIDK
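GCN5L2 (20 nM) in 50mM HEPES pH 7.5, 0.1mM EDTA, 0.01% Tween-20 preincubated 15 min with compounds at room temperature. Reaction started with H3(1-25) 75uM, acetyl-CoA 70uM, ThioGlo1 50uM; CoA-thiol fluorescence (Ex340/Em540) read at 0 and 20 min.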
Numbers without * were called inactive; ? = inconclusive; [ ] = another dose, or the depositor's remark. On the % scale 0 is the no-effect control and ±100 the full control effect; potency means the concentration at half of the fitted maximal effect. Only part of the results is shown; most or all hits stand in other tables.

# | SMILES | GCN5L2 inh
1 | Cc1cccc(N2CCN(c3cc(C)nc4c(-c5ccc(Cl)cc5)c(C)nn34)CC2C)c1 (configuration not stated) | 2.8%
2 | O=C(NCC1CCCO1)c1cc(S(=O)(=O)N2CCOCC2)c(Cl)cc1Cl (configuration not stated) | 1.4%
3 | CC(C)(C)c1ccc(-n2ncc3c2CCCC3NC(=O)CCN2CCCCC2=O)cc1 (configuration not stated) | 1.4%
4 | Nc1nc2c(ncn2COCCO)c(=O)[nH]1 | -6.5%
5 | CC(OC(=O)CCN1C(=O)C2CC=CCC2C1=O)C(=O)Nc1cccc(C#N)c1 (configuration not stated) | -14.2%
6 | CON(C)S(=O)(=O)c1ccc2c(c1)NC(=O)C1CCCN21 (configuration not stated) | -6.5%
7 | Cc1noc(C)c1C(=O)N1CCN(S(=O)(=O)c2ccc(F)cc2)CC1 | -5.8%
8 | COc1ccccc1N1CCN(C(=O)c2oc3cc(C)c(C)cc3c2C)CC1 | -8.0%
9 | Cc1c(Cl)cccc1-n1nnnc1-c1cccs1 | -7.4%
10 | CC(=O)/C(N=Nc1ccc2c(c1)OCCO2)=C(\C)O | -2.9%
11 | CCN1CCN(C(=O)c2ccc(NS(=O)(=O)c3ccccc3)cc2)CC1 | 2.3%
12 | O=C(CCNS(=O)(=O)c1cccs1)Nc1nccs1 | ?
13 | COc1ccc(NC(C)=O)cc1NC(C)C(=O)Nc1ccccc1F (configuration not stated) | -0.7%
14 | Cc1ccc2c(CNCc3ccccc3)cc(=O)oc2c1 | -2.5%
15 | O=C(NC(Cc1ccc2c(c1)OCO2)C(=O)N1CCCC1C(=O)O)c1ccccc1 (configuration not stated) | 1.8%
16 | CC(C(=O)NC(=O)NC1CCCCC1)N1CCN(c2ccccn2)CC1 (configuration not stated) | 0.3%
17 | COc1ccc(OCCOC(=O)CNC(=O)c2cccc(C)c2)cc1 | -0.4%
18 | CC(=O)Nc1cc(NC(C)=O)cc(C(=O)OCC(=O)c2ccc3c(c2)NC(=O)CO3)c1 | -2.4%
19 | CCSc1nnc(NC(=O)CSc2nc(C)cc(C)n2)s1 | -13.6%
20 | Cn1c(=O)[nH]c(=O)c2c1nc(N1CCCCC1)n2CC(O)COc1ccccc1 (configuration not stated) | 0.9%
21 | COc1ccc(CCNC(=O)c2ccc(Cn3c(=O)c4ccccc4n(CC(=O)C(C)(C)C)c3=O)cc2)cc1OC | 0.0%
22 | CC(=O)N1CCc2c(sc3c2c(=O)n(-c2ccccc2)c(=O)n3CC(=O)Nc2cccc(C)c2)C1 | -12.4%
23 | CCCN1C2CCCC1CC(NC(=O)c1ccccc1OCC)C2 (configuration not stated) | -5.4%
24 | CCOC(=O)C1CCCN(c2c(NCCCN(CC)c3ccccc3)c(=O)c2=O)C1 (configuration not stated) | -9.1%
25 | COCC1CCCCN1C(=O)c1cccc(OC2CCN(S(C)(=O)=O)CC2)c1 (configuration not stated) | 0.2%
26 | CC(C)(C)c1ccc(C(=O)CC(=O)c2cc(Cl)ccc2O)cc1 | 3.6%
27 | CC1(C)NC(=O)N(CC(=O)Nc2nc(-c3ccc(F)cc3)cs2)C1=O | -3.6%
28 | Cc1cc(-c2nnc(SCc3cccnc3)o2)no1 | 12.6%
29 | Cc1nnc(NC(=O)c2ccccc2Oc2ccccc2)s1 | -5.8%
30 | CCOc1ccccc1CNc1ncnc2c1nc1n2CCCC1 | -1.7%
31 | O=C(COc1ccc2ccccc2c1)Nc1cccnc1Cl | -1.4%
32 | CCCCN(C)CCNC(=O)CCNC(=O)Cn1ccc2ccccc2c1=O | -9.2%
33 | CC(C)C[C@H](NC(=O)C1(c2ccccc2)CCN(C(=O)[C@H]2CSCN2C(=O)OC(C)(C)C)CC1)C(=O)O | -7.0%
34 | CCN(Cc1ccc(OC)c(COC)c1)CC1CCCN(CCc2cccc(OC)c2)C1 (configuration not stated) | -5.8%
35 | CN(c1ccccc1C(=O)N1CCCC1)S(C)(=O)=O | -11.9%
36 | O=C(COC(=O)c1cccc(S(=O)(=O)N2CCc3ccccc32)c1)NC1CCS(=O)(=O)C1 (configuration not stated) | -0.2%
37 | Cc1nn(CC(=O)Nc2ccc3c(c2)nc2n3CCOC2)c(=O)c2ccccc12 | -6.0%
38 | Cc1ccccc1N1CCN(CC(=O)Nc2ccccc2C(=O)NC2CC2)CC1 | -4.2%
39 | O=c1[nH]c2ccccc2n1CCCSc1cnc2ccccc2n1 | -16.0%
40 | CN(CC(=O)Nc1ccc(F)cc1)C(=O)COC(=O)/C=C/c1cccs1 | -8.7%

Quoted from above, nos. 21 to 22
# | SMILES | GCN5L2 inh
21 | COc1ccc(CCNC(=O)c2ccc(Cn3c(=O)c4ccccc4n(CC(=O)C(C)(C)C)c3=O)cc2)cc1OC | 0.0%
22 | CC(=O)N1CCc2c(sc3c2c(=O)n(-c2ccccc2)c(=O)n3CC(=O)Nc2cccc(C)c2)C1 | -12.4%

(list continues)
# | SMILES | GCN5L2 inh
41 | O=C(OCC(=O)N1CCN(C(=O)c2ccco2)CC1)c1ccccc1C(=O)c1ccc(Cl)cc1 | -4.5%
42 | Cc1cc(NC(=O)c2noc3c2CCCC3)nn1Cc1ccc(Cl)cc1 | -3.9%
43 | CCN=c1sc2ccccc2n1CC(O)COc1ccccc1 (configuration not stated) | -3.5%
44 | CCn1c(CCNC(=O)c2ccco2)nc2ccccc21 | -3.1%
45 | O=C(COC(=O)CNC(=O)c1ccc(Cl)cc1)Nc1cccc(S(=O)(=O)N2CCCC2)c1 | 14.0%
46 | Cc1ccc(S(=O)(=O)Nc2nncs2)cc1 | 0.2%
47 | O=C(NCCCn1ccnc1)c1cc2ccccc2o1 | -2.3%
48 | CCOC(=O)C(C)n1nc(/C=C/c2ccc(OC)cc2)ccc1=O (configuration not stated) | -3.7%
49 | CCOC(=O)C1CCN(C(=O)c2ccc3c(Cl)c4c(nc3c2)CCCC4)CC1 | 0.9%
50 | CCCc1nc(N)c(C#N)c(-c2ccco2)c1CC | 1.0%
51 | CC(C)(C)C(=O)Nc1ccc(S(=O)(=O)N2CCC(c3nc4ccccc4[nH]3)CC2)cc1 | 3.4%
52 | COc1ccc(CNC(=O)c2ccc3c(O)c(S(=O)(=O)c4ccccc4)c(=O)[nH]c3c2)cc1 | -3.2%
53 | COc1ccccc1NC(=O)C(C)OC(=O)c1nc2nc(C)cc(C)n2n1 (configuration not stated) | -1.4%
54 | C=CCC(=O)N1CCCC(CNC(=O)c2ccc(-c3ccccc3)cc2)C1 (configuration not stated) | 0.0%
55 | CC(=O)c1ccc(OCCCC(=O)NC(C)c2ccc(S(N)(=O)=O)cc2)cc1 (configuration not stated) | 5.1%
56 | CC(CN(C)Cc1ccccc1)OC(=O)c1ccccc1F (configuration not stated) | -4.8%
57 | Cc1cccc(NC(=O)CSc2nnc(CCCCCNC(=O)OC(C)(C)C)o2)c1C | -9.2%
58 | O=c1sc2ccccc2n1CCOc1ccccc1 | 2.1%
59 | N#C/C(=N\Nc1ccc(F)cc1)C(=N)N1CCCCCC1 | -5.4%
60 | Cc1cc(NC(=O)c2cc(-c3ccccc3)on2)n(-c2ccccc2)n1 | 1.3%
61 | CCCC1CCC(C(=O)n2nc(N)c3cc4ccc(OC)cc4nc32)CC1 (configuration not stated) | 2.2%
62 | CCO[C@H]1OC(C(=O)N2CCN(Cc3ccccc3)CC2)=C[C@@H](c2ccccc2)[C@@H]1CCCO | -5.9%
63 | CC1(C)CC(=O)C=C(Nc2ccc(O)c(C(=O)O)c2)C1 | -27.1%
64 | COc1ccccc1NC(=O)CN1CCSc2ccccc21 | -6.9%
65 | CC(C(=O)NCCc1nc2ccccc2[nH]1)n1cc([N+](=O)[O-])cn1 (configuration not stated) | 3.2%
66 | CCOCCn1c(COc2ccc(C)cc2)nc2ccccc21 | -0.3%
67 | C/C(=N\NC(=O)c1ccc(F)cc1)c1ccc(NC(=O)Cc2ccccc2)cc1 | -3.6%
68 | Cc1ccc(-n2nc(C(=O)NCCN(C)C)c(=O)n(C)c2=O)cc1 | 0.3%
69 | O=C(O)C1C2CC2CN1C(=O)c1ccc(Cl)cc1 (configuration not stated) | 0.3%
70 | O=C(COC(=O)c1cnccn1)NCCc1ccc(Cl)cc1 | 0.6%
71 | CC(C)c1ccc(OCc2ccc(C(=O)NN3CCN(C)CC3)o2)cc1 | -16.7%
72 | COc1ccc(C(=O)Nc2cccc(-c3cn4ccsc4n3)c2)cc1OC | -12.8%
73 | N/C(Cc1cccc2ccccc12)=N\OC(=O)COc1ccccc1 | -4.4%
74 | CC(C)(C)c1ccc([C@@H](O)CCCN2CCC(C(O)(c3ccccc3)c3ccccc3)CC2)cc1 | 0.5%[21.4 µM]
75 | CC[C@@]12C(=O)N(c3cccc(F)c3)C(=O)N1[C@H](c1ccc(Br)cc1)[C@@H]1C(=O)N(C(C)(C)C)C(=O)[C@@H]12 | ?
76 | CCOC(=O)c1sc(/N=C/N(C)C)nc1C | -3.7%
77 | COC(=O)CCCC1=CC2=C(c3ccccc3)C(=O)C(C)(OC(=O)C3CCCC3)C(=O)C2=CN1C1CCCCC1 (configuration not stated) | -12.2%
78 | COc1cc(NC(=O)CC2C(=O)N(c3cccc(C)c3)C(=O)N2Cc2cccs2)cc(OC)c1 (configuration not stated) | -1.5%
79 | O=C(c1ccc2c(=O)n3c(nc2c1)CCCCC3)N1CCN(Cc2ccccc2)CC1 | 2.7%
80 | O=C(COC(=O)c1ccc2c(c1)OCO2)Nc1ccccc1Cl | -4.2%
81 | CC(C)OC(=O)c1c(NC(=O)CCC(=O)O)sc2c1CCCCC2 | 0.2%
82 | COc1ccc(OCCCNCCc2ccccc2)cc1 | -0.3%
83 | COc1ccc(CC(=O)Nc2ccccc2C(=O)N2CCOCC2)cc1OC | -10.7%
84 | CC(C)C(NC(=O)c1ccc(Cl)cc1Cl)C(=O)N1CCN(S(=O)(=O)c2ccccc2)CC1 (configuration not stated) | -2.1%
85 | COC(=O)NCCOC(=O)N(O)c1ccc(Br)cc1 | -1.5%
86 | CCOC(=O)Cc1c(C)nc2c(-c3ccc(OC)c(OC)c3)c(C)nn2c1C | 0.9%
87 | Cc1cccc(Oc2ccccc2NC(=O)C2=COCCO2)c1 | -8.1%
88 | CCOc1cccc2cc(C(N)=O)c(=NCc3ccccc3)oc12 | 1.1%
89 | N#C/C(=C\c1ccccc1)c1ccccn1 | -5.3%
90 | COc1ccc(/C=N/N2CCN(c3ccncc3S(=O)(=O)N3CCCCC3)CC2)cc1 | 2.6%
91 | N#Cc1c(-c2cccs2)cc(C2CC2)nc1SCC(N)=O | 0.9%
92 | CSc1ccc(-c2nc3ncccn3c2Nc2ccc(C)c(C)c2)cc1 | -21.7%
93 | Cc1ccc(NC(=O)c2cc(NC(=O)C3CC=CCC3C(=O)O)ccc2N2CCOCC2)cc1Cl (configuration not stated) | -9.4%
94 | COc1ccc(C(C#N)(CCC#N)CCC#N)cc1OC | -18.8%
95 | Cc1cccc(C)c1NS(=O)(=O)c1ccc(F)cc1 | -2.3%
96 | COc1ccc(CCNC(=O)CSc2nnnn2-c2ccccc2)cc1 | -1.4%
97 | COC(=O)[C@H](CC(C)C)N(Cc1ccccc1)S(=O)(=O)N(Cc1ccc(OC)cc1)[C@@H](CC(C)C)C(=O)OC | -8.4%
98 | COc1ccc(CCNc2nc(-c3sc(C)nc3C)cs2)cc1OC | ?
99 | Cc1cc(OCC(=O)NCCCN2CCCC2=O)c2c(C)c(C)c(=O)oc2c1 | -6.6%
100 | N#Cc1c(N2C(=O)Nc3ccccc3N2O)sc2c1CCCCCC2 | -5.3%

An excerpt from above in order of count of non-hydrogen atoms, lowest first.
# | SMILES | GCN5L2 inh
89 | N#C/C(=C\c1ccccc1)c1ccccn1 | -5.3%
81 | CC(C)OC(=O)c1c(NC(=O)CCC(=O)O)sc2c1CCCCC2 | 0.2%
84 | CC(C)C(NC(=O)c1ccc(Cl)cc1Cl)C(=O)N1CCN(S(=O)(=O)c2ccccc2)CC1 (configuration not stated) | -2.1%

The main list resumes; the 4 compounds before the break are reprinted first.
# | SMILES | GCN5L2 inh
97 | COC(=O)[C@H](CC(C)C)N(Cc1ccccc1)S(=O)(=O)N(Cc1ccc(OC)cc1)[C@@H](CC(C)C)C(=O)OC | -8.4%
98 | COc1ccc(CCNc2nc(-c3sc(C)nc3C)cs2)cc1OC | ?
99 | Cc1cc(OCC(=O)NCCCN2CCCC2=O)c2c(C)c(C)c(=O)oc2c1 | -6.6%
100 | N#Cc1c(N2C(=O)Nc3ccccc3N2O)sc2c1CCCCCC2 | -5.3%
101 | Cc1oc(-c2ccc(Cl)cc2)nc1CSc1nnc(C)n2c1cc1sccc12 | -2.4%
102 | CC(C)=CC(=O)OCC(=O)Nc1ccc(SC(F)F)cc1 | 3.3%
103 | O=C(O)C1C2C=CC(O2)C1C(=O)NCc1ccc(Cl)cc1 (configuration not stated) | -2.7%
104 | Cc1nc2ccccn2c1C(=O)/C=C/c1cccc([N+](=O)[O-])c1 | -3.3%
105 | CCOC(=O)c1ccc(NC(=O)c2nc[nH]c2C(=O)N[C@@H](Cc2ccccc2)C(=O)OC(C)(C)C)cc1 | ?
106 | c1ccc(-c2nccc(-c3ccc(-n4cnc5ccccc54)cc3)n2)cc1 | -3.8%
107 | Cc1cc(C)c(S(=O)(=O)c2ccccc2C)c(N(C)C)n1 | -21.9%
108 | O=C(O)c1cc(S(=O)(=O)N2CC=C(c3ccccc3)CC2)ccc1O | -1.5%
109 | CC(=O)N(C)c1ccc(OCC(O)CN(c2ccccc2C)S(=O)(=O)c2ccc(C)cc2)cc1 (configuration not stated) | -1.7%
110 | Cc1ccc(-c2nc(N)n(C(=O)c3cccs3)n2)cc1 | -4.9%
111 | O=C(Nc1ccccc1Cl)c1cccc(NC(=O)c2cccs2)c1 | -2.3%
112 | CC1CCN(c2ccc(C(=O)NCCc3ccccc3)cn2)CC1 | 1.9%
113 | Cc1nnc(SCc2cc(=O)c3ccccc3[nH]2)s1 | -2.2%
114 | COc1ccc(CC(=O)OCC(=O)c2ccc[nH]2)cc1 | -1.2%
115 | OCC1CCCN(c2ncnc3scc(-c4ccccc4)c23)C1 (configuration not stated) | -1.1%

High-throughput results from PubChem BioAssay.
